# Vaccinia pol inh: vaccinia E9 polymerase processive synthesis inhibition | 46,000 compounds, 0.94% hits | in vitro processive DNA synthesis, absorbance read-out; active compounds read low; some inactives read as strong as hits | normalized absorbance, % (test concentration not listed) | AID 493162;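 active means replicate mean up to 90% and picked by the depositor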;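 further: 100% = median of the test wells of a plate; 100 nL library stock went into each well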
# * = called active by the depositor. Only part of the results is shown. The share of hits here may be higher or lower than overall.
SMILES,Vaccinia pol inh
Cc1ccc(S(=O)(=O)N2CCCCC2)cc1C(=O)O,102.3
O=[N+]([O-])O[C@H]1CO[C@H]2[C@@H]1OC[C@H]2O[N+](=O)[O-],100.2
CC(C)NC(=O)CSCc1cnn(-c2ccccc2)c1-n1cccc1,102.0
CC1(C)Cc2c(sc3ncn4nc(-c5ccccc5)nc4c23)C(C)(C)N1,100.1
Cc1ccc(-c2ccc(=O)n(CC(=O)NCCN3CCCCC3C)n2)cc1 (stereo unspecified),97.0
CCN(CC)S(=O)(=O)c1cc(C(=O)N2CCc3ccccc32)ccc1Cl,103.7
CCN1CCN(CCC(=O)Nc2sc3c(c2C#N)CCCCC3)CC1,74.2
O=c1oc2ccccc2cc1S(=O)(=O)c1ccccc1,120.1
O=C(/C=C/c1ccccc1)Nc1nc2c(s1)CCCC2,103.1
O=C(CSc1nncc2ccccc12)c1ccc(Cl)cc1Cl,102.6
O=C(/C=C/c1cn(-c2ccccc2)nc1-c1cccnc1)N1CCCC1,90.6
COc1ccc(NC(=O)C2CC(=O)N(Cc3ccc(F)cc3)C2)cc1 (stereo unspecified),98.0

# Overlap with the part before: 4 compounds; new compounds follow.
SMILES,Vaccinia pol inh
O=C(/C=C/c1ccccc1)Nc1nc2c(s1)CCCC2,103.1
O=C(CSc1nncc2ccccc12)c1ccc(Cl)cc1Cl,102.6
O=C(/C=C/c1cn(-c2ccccc2)nc1-c1cccnc1)N1CCCC1,90.6
COc1ccc(NC(=O)C2CC(=O)N(Cc3ccc(F)cc3)C2)cc1 (stereo unspecified),98.0
CN(C)c1ccc(-n2cccc2)cc1,90.9
Cc1ccc(Oc2cc(C#N)c(C#N)cc2-n2nnc3ccccc32)cc1C,99.8
Cc1ccc(/C=C/C(=O)CCC(=O)O)cc1,93.8
CCN(CC)S(=O)(=O)c1ccc2nc(NC(=O)c3cccs3)sc2c1,89.2
CC(C)(C)C(=O)OC[C@H]1O[C@@H](n2cnc3c(N)ncnc32)C[C@@H]1OC(=O)C(C)(C)C,110.7
O=C(COc1ccc(Cl)cc1)Oc1ccccc1,100.7
COC(=O)c1cc(N)c(Cl)s1,100.3
O=C(O)c1cccc(N2C(=O)C3CC=CCC3C2=O)c1 (stereo unspecified),100.5
CCN(CC)S(=O)(=O)c1ncn[nH]1,100.0
CCOC(=O)c1c(C)n(-c2ccccc2)c2ccc(OC(=O)c3ccccc3NC(=O)CC)cc12,100.0
CCOC(=O)/C=C1\NC(=O)CS1,93.4
O=C1CC(c2ccccc2)CC2=C1C=Nc1ccccc1N2 (stereo unspecified),108.0
CCCCCCCC/C=C\C/C=C\C/C=C\CCCC(=O)O,99.9
CC1=NN(C)C(=O)C1Cc1c(Cl)cccc1Cl (stereo unspecified),94.1
O=C(Cc1ccccc1OC(=O)c1ccccc1)c1ccccc1,71.8
CC(C)S(=O)(=O)c1cnc(N2CCOCC2)nc1N,106.0
Cc1ccccc1N=C(N)N=C(N)N,101.4
NC(=O)CSC1=Nc2ccccc2C2=NC(c3ccccc3)C(=O)N12 (stereo unspecified),96.5
NC(=O)c1cnccn1,102.0
COc1ccc(NC(=O)CSc2nc3c(cc2C#N)C(=O)CCC3)cc1,89.1
Cc1nc(-c2ccncc2)nc(NCCNc2cc(C(F)(F)F)ccn2)c1Cl,105.5
CCCCN(C)S(=O)(=O)c1ccc2[nH]c(=O)ccc2c1,88.6
COCC(=O)Nc1ccc(-c2cn3cccnc3n2)cc1,100.9
CCSc1nnc(-c2ccccc2)c(-c2ccccc2)n1,99.9
O=C(NCCc1ccccc1)c1ccc(C(F)(F)F)cc1,97.8
Nc1ccc2nc(C3CCCCC3)[nH]c2c1,99.6
Cc1ccc(-c2csc(/C=C3/NC(=O)CS3)n2)cc1,105.7
O=C1CCCCCCCCCCC1CN1CCOCC1 (stereo unspecified),96.3
CCOc1cccc(CN(C(C)=O)c2ccc3[nH]c(=O)[nH]c3c2)c1OCc1ccccc1,102.4
CCOC(=O)NC(=S)Nc1ccc(N2CC(C)OC(C)C2)cc1 (stereo unspecified),90.9
Cc1[nH]n(C(N)=S)c(=O)c1C(c1ccccc1)C(C#N)C#N (stereo unspecified),97.5
COc1cc(C2CSc3nc4sc5c(c4c(=O)n32)CCCC5)cc(Cl)c1O (stereo unspecified),102.0
Cc1c(Cl)cccc1NC1=NS(=O)(=O)c2ccccc21,99.6
[N-]=C=N[n+]1ccc2ccccc2c1C(=O)c1ccc(Cl)cc1,100.2
O=C(/C=C/c1ccccc1Cl)N1CCCCC1,99.7
COC12CC[C@@]3(C[C@@H]1C(C)(O)C(C)(C)C)[C@H]1Cc4ccc(O)c5c4[C@@]3(CCN1CC1CC1)[C@H]2O5 (stereo partly specified),94.8
N#CSc1ccc(N2CCOCC2)cc1,103.4
Cc1cc(-c2nn(C)c(=O)c3ccccc23)cc(C)c1O,111.3
COc1ccc(-c2cc(C(F)(F)F)nc(SCCC(=O)Nc3ccccc3)n2)cc1,95.7
COc1ccc(OC)c(S(=O)(=O)N2CCc3ccccc32)c1,101.0
Cc1cc(SCC(=O)Nc2ccccc2)c2ccccc2n1,102.4
Cc1cccc(N(C)C(=O)CCS(=O)(=O)c2ccc3c(c2)SC(C)C(=O)N3)c1 (stereo unspecified),88.5
O=C(COC(=O)C1CC(=O)N(CCc2ccc(Cl)cc2)C1)c1ccc(Cl)cc1 (stereo unspecified),100.4
COC(=O)c1ccsc1N1C(=O)c2ccccc2C1=O,102.2
O=C(Oc1nnc(SCCS(=O)(=O)c2ccc(F)cc2)n1C1CC1)c1cccs1,103.1
N#CCCN(C(=O)c1cccs1)c1ccccc1F,84.7
Cc1cc(SC(=O)N/C=C/c2ccco2)c(C)cc1Cl,101.6
CCn1c2ccccc2c2cc(C=Nc3ccc(OC)cc3)ccc21,97.7
O=C(CSc1cn(CC(=O)N2CCCC2)c2ccccc12)Nc1ccccc1,100.5
Cc1ccc(C(O)c2ccccc2)s1 (stereo unspecified),94.8
O=c1[nH]c(=S)[nH]c(O)c1C=Nc1cc(C(F)(F)F)cc(C(F)(F)F)c1,111.0
O=C(O)c1cnc(N2CCCC2)nc1,98.6
BrCC12CC3CC(CC(C3)C1)C2,98.6
COc1cccc(C(=O)CN2C3=NCCCN3c3ccccc32)c1,99.5
Cc1ccsc1C(=O)OCC1CCCO1 (stereo unspecified),101.8
CCOC(=O)N1CCN(CC(O)COC2C3(C)CCC(C3)C2(C)C)CC1 (stereo unspecified),100.7
c1ccc2[nH]c(CCn3c4ccccc4c4ccccc43)nc2c1,99.1
CC1=CC(c2ccoc2)c2c(oc(N)c(C#N)c2=O)S1 (stereo unspecified),91.9
O=C1CCN(c2cccc(F)n2)CC1,99.9
CCC(=O)NC(C)c1nc2ccccc2n1Cc1ccccc1C (stereo unspecified),101.7

# Additional results follow.
SMILES,Vaccinia pol inh
NS(=O)(=O)c1ccc2nc(NC(=O)c3cccc(C(F)(F)F)c3)sc2c1,100.4
CC(=O)Nc1c(-c2cccc(C(F)(F)F)c2)c(C(F)(F)F)nn1C,97.5
CC1(c2ccccc2)CC(C)(C)N(C(=O)c2ccco2)c2ccccc21 (stereo unspecified),101.9
O=C(/C=C/c1ccccc1)Nc1nnc(CSCc2ccccc2F)s1,99.8
N#Cc1ccc(-c2csc(NC(=O)/C=C/c3cccs3)n2)cc1,101.4
CCC(=O)Nc1nnc(SCC(=O)Nc2ccccc2)s1,101.7
Cc1cccn2cc(-c3cccc(NC(=O)c4ccccc4)c3)nc12,96.7
COc1cccc(C(=O)OCC(=O)NC23CC4CC(CC(C4)C2)C3)c1,101.7
COc1ccc(S(=O)(=O)n2c(SCc3ccc(C(F)(F)F)cc3)nc3ccccc32)cc1,100.5
CC(NC(=O)/C=C/c1ccccc1Cl)c1ccccc1 (stereo unspecified),100.3
CCCN(Cc1cccs1)C(=O)Nc1cc(OC)cc(OC)c1,107.7
CC(=O)Nc1nnc(SCc2cccc(F)c2)s1,93.5

# Nothing new here: entries from further up.
SMILES,Vaccinia pol inh
NS(=O)(=O)c1ccc2nc(NC(=O)c3cccc(C(F)(F)F)c3)sc2c1,100.4
CC(=O)Nc1c(-c2cccc(C(F)(F)F)c2)c(C(F)(F)F)nn1C,97.5
CC1(c2ccccc2)CC(C)(C)N(C(=O)c2ccco2)c2ccccc21 (stereo unspecified),101.9
O=C(/C=C/c1ccccc1)Nc1nnc(CSCc2ccccc2F)s1,99.8

# More results.
SMILES,Vaccinia pol inh
N#Cc1ccncc1Sc1ccc(Cl)cc1,91.4
O=C(O)CCc1nn2c(nc3ccccc32)[nH]c1=O,101.2
CC1(C)CCCC(C)(C)N1Sc1ccccc1,75.5
O=C(CNC(=S)N(Cc1ccccc1)Cc1ccccc1F)N1CCCC1,101.1
CCOC(=O)c1cccc(NC(=O)CCOc2ccccc2)c1,99.6
O=C(O)/C=C/C(=O)N1CC=C(c2ccccc2)CC1,98.5
O=C(Nc1cc(Cl)cc(Cl)c1)OC1CN(C(c2ccccc2)c2ccccc2)C1,112.7
O=C1NC(=S)S/C1=C/c1ccc(-c2ccc3c(c2)C(=O)NC3=O)o1,98.8
COc1ccc2cc(C(C)c3nc4ccccc4[nH]3)ccc2c1 (stereo unspecified),101.1
Cc1cc(C(=O)OCC(=O)N2CCC(C)CC2)c2ccccc2n1,101.4
O=C(Nc1nc2ccc(S(=O)(=O)N3CCCC3)cc2s1)c1ccccc1,75.2
CC(=O)OC1C(=O)OC2[C@@H](C)C(n3ccc(=O)[nH]c3=O)O[C@H]12 (stereo partly specified),95.3

# Filtered by structure, those above with a furan ring, fused or not
SMILES,Vaccinia pol inh
Cc1cc(SC(=O)N/C=C/c2ccco2)c(C)cc1Cl,101.6
CC1=CC(c2ccoc2)c2c(oc(N)c(C#N)c2=O)S1 (stereo unspecified),91.9
CC1(c2ccccc2)CC(C)(C)N(C(=O)c2ccco2)c2ccccc21 (stereo unspecified),101.9
O=C1NC(=S)S/C1=C/c1ccc(-c2ccc3c(c2)C(=O)NC3=O)o1,98.8

# Continued.
SMILES,Vaccinia pol inh
Cc1ccc(O)c(C(N)(C(F)(F)F)C(F)(F)F)c1,102.5
Cc1nc2ccccc2c(C(=O)OCC(=O)Nc2ccc(Cl)cc2F)c1C,92.1
Cn1c(=O)c(C(=O)/C=C/C=C/c2ccccc2)c(O)c2ccccc21,100.6
c1ccc(N=c2scc(-c3ccccc3)n2CCN2CCOCC2)cc1,99.5
Cc1cc(N2CCN(C)CC2)nc2ccc(NC(=S)NC3CC3)cc12,102.0
CN=C(Nc1cc(C(F)(F)F)ccc1-n1ccnc1)c1ccccc1,98.9
Cc1ccsc1/C=C/C(=O)O,84.7
c1cc(C(N2CCOCC2)N2CCOCC2)ccn1,101.4
C=CCn1c2ccccc2c2nnc(SCc3ccccc3F)nc21,97.5
CC(=O)Oc1ccccc1C(=O)N(C)C,96.3
OC(COCc1ccc2c(c1)OCO2)CN1CCN(c2ccc(F)cc2)CC1 (stereo unspecified),100.7
CC1Cc2ccccc2N1c1ncnc2nc[nH]c12 (stereo unspecified),92.8
Cn1c(C(Cc2ccccc2)NC(=O)C(C)(C)C)nc2ccccc21 (stereo unspecified),99.0
CCOC(=O)c1ccccc1NC(=O)c1sc2nc(C)nc(N(CC)CC)c2c1C,99.3
O=C(COc1ccccc1)Nc1cccc(-c2nc3cccnc3s2)c1,98.2
O=C(CSc1ncnc2ccccc12)Nc1nccs1,100.7
Cn1c(C(=O)O)c(CNCc2cccnc2)c2ccccc21,99.6
N#Cc1cccc(NC(=O)CCCC(=O)Nc2cccc(C#N)c2)c1,100.9
O=C(O)CCCSc1nc2ccccc2s1,100.3
c1ccc(CSc2ncnc3sc4c(c23)CCCC4)cc1,91.0
CC1=C(CC(=O)c2ccccc2)C(=O)c2ccccc2C1=O,113.6
Cn1nccc1N1C(=O)c2ccccc2C1=O,104.5
O=C(O)CCNC(=O)c1ccccc1Cl,107.3
COC(=O)NCC(c1cccnc1)N1CCOCC1 (stereo unspecified),99.3
CCOC(=O)N1CCc2c(sc3[nH]c(=S)n(-c4ccccc4)c(=O)c23)C1,82.1
ClC1C(Cl)C(Cl)C(Cl)C(Cl)C1Cl (stereo unspecified),99.7
Nc1cc(C(=O)OCC(=O)N2CCc3ccccc32)ccc1Cl,108.1
O=C(Cc1ccc(Cl)cc1Cl)N1CCN(c2ccccc2O)CC1,101.4
Cc1nc2ccccc2n1CCc1ccccc1,100.5
OCCc1c(-c2ccccc2)n(Cc2ccccc2)c2ccccc12,100.1
O=C1Cc2cc(S(=O)(=O)NCc3cccs3)ccc2N1,105.3
C=CCSc1nnc2[nH]c(=O)cc(N)n12,102.8
O=C(O)CC(=O)Nc1ccc(OC(F)(F)F)cc1,99.2
Cc1c(CCC(=O)O)c(=O)oc2cc3occ(C(C)(C)C)c3cc12,90.7
CCOC(=O)c1sc2nc3n(c(=O)c2c1C)N=C(c1cc2cc(Cl)ccc2oc1=O)CS3,101.9
CCCCN(C)C(=O)Cn1ncc2c3ccccc3n(CCC)c2c1=O,106.8
CC(C)COc1cccc(OCC(=O)Nc2cccc(Cl)c2)c1,103.4
O=C(O)C1CC=CCC1C(=O)NCCc1csc(-c2ccccc2)n1 (stereo unspecified),91.5
O=C(Nc1ncc(Cl)cn1)c1cccs1,86.9
NC(=O)COC(=O)C1(c2ccc(Cl)cc2)CCCC1,83.7
Cc1cc(N2CCN(c3ccccc3)CC2)n2ncnc2n1,98.3
O=C(/C=C/c1ccccc1)NC(=S)Nc1cccnc1Cl,100.2
CC(C)(C)C(=O)NC(=S)Nc1cc(C(F)(F)F)cc(C(F)(F)F)c1,89.6
COc1ccc(-c2[nH]c3ccccc3c2SCCNC(=O)c2ccc(OC)c(OC)c2)cc1,106.6
O=C(CSCc1ccco1)NCc1ccccc1Cl,104.1
CC1=C(C#N)c2nc(N)c(C#N)c(C)c2/C1=C\c1ccccc1,112.1
O=C(c1ccccc1)N1CCC(O)(c2ccccc2)[C@H]2CCCC[C@H]21 (stereo partly specified),99.9
CCOC(=O)C1CCCN(Cc2ccccc2)C1 (stereo unspecified),100.2
COCCN1CCn2c(nc3cc(NC(C)=O)ccc32)C1,103.3
COc1ccc(S(=O)(=O)CC(SC#N)c2ccccc2)cc1 (stereo unspecified),99.9
N#Cc1ccccc1N=Cc1cccc(O)c1O,86.4*
COc1ccc(-n2cc(-c3ccccc3)c3c(SC)ncnc32)cc1,100.4
O=C(Nc1nc(-c2ccc3c(c2)CCCC3)cs1)c1cccnc1,95.9
NNC(=O)OC12CC3CC(CC(C3)C1)C2,91.0
Cc1ccc2cc3cc(C(=O)NCCCN4CCCCCC4)sc3nc2c1,66.0*
CCC(=O)N1c2ccc(S(=O)(=O)NC3CCCCC3C)cc2CC1C (stereo unspecified),90.5

# Bioassay records from PubChem.
